BJeLR viability: kills HRASV12-expressing BJeLR cells. BJeLR (HRASV12) viability, CellTiter-Glo ATP luminescence, 48 h; reference of the scale not given here. inhibition, % (no concentration beside the values). 300,000 compounds, 0.17% hits. AID 1554;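 active = replicate mean above 50%; inconclusive = above 50% but judged a plate artefact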;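 also: 50 nL library stock added to about 25 µL; numbers are from one replicate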
Mtb hypoxia rep: reduces hypoxia-regulated biosensor signal in M. tuberculosis. M. tuberculosis hypoxia-regulated fluorescent reporter, fluorescence. fluorescence inhibition, % (test concentration not listed). 300,000 compounds, 0.1% hits. AID 1159583;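 active = 35 to 45% if threefold the growth effect, above 45% if 1.5-fold the growth effect; inactive = the rest, general growth blockers included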;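 also: wells of about 50 µL received 100 nL stock; 0% = vehicle wells and 100% = reference inhibitor wells; whole bacteria with a GFP reporter of the hypoxia response; strong numbers were not always called active; many hits fall short of the cut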
Bead autofluor: flagged as autofluorescent in microsphere protease counterscreen; fluorescence intensity (test concentration not listed); compound autofluorescence counterscreen, microsphere flow cytometry; stronger effect = higher value; 360,000 compounds, 3.1% hits; AID 624483;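 active = at least 3 SD above the mean of all compounds, about 16000 in these data; inconclusive = too few beads counted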;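 also: 100 nL of 1 mM stock went into each well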
ugtP null kill: growth inhibition of S. aureus ugtP deletion strain; S. aureus RN4220 ugtP deletion, OD600 growth, 16 h; some inactives read as strong as hits; growth inhibition, % (no concentration beside the values); 330,000 compounds, 0.54% hits; AID 1259309;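 active = z-score under -3 and OD600 up to 0.15 on both plates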;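 also: plate controls were untreated wells for no effect and antibiotic for full effect; wells of about 80 µL received 100 nL stock; the first replicate is given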
PrP 5UTR inh: inhibition of PrP 5' UTR reporter expression; cell-based PrP 5' UTR mRNA reporter, plate reader; inhibition, % (no concentration beside the values); 340,000 compounds, 0.35% hits; AID 488862;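 active = every replicate at 50% or more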;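 also: 0 = median of the neutral control wells; tested in H4 reporter cells; numbers are from one replicate; inactives centre near -14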
Sa RN4220 lethal: S. aureus RN4220 growth inhibition. 330,000 compounds, 0.33% hits. AID 1259311. OD600, 16 h. inhibition, % (test concentration not listed);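 active = z-score of -3 or lower and OD600 up to 0.18 on both plates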;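 also: plate controls were untreated cells for no effect and reference antibiotic for full effect; stock transfer was 100 nL into about 80 µL; one replicate is shown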
Mtb hypoxia rep growth: second read-out of Mtb hypoxia rep, no call of its own (marks repeat the call); growth inhibition, %; measured here: M. tuberculosis growth (absorbance);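 0% = vehicle and 100% = reference antibiotic; read after six days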
Active calls of the source: *; ? = inconclusive; nt = not tested or not shown.

SMILES	BJeLR viability	Mtb hypoxia rep	Mtb hypoxia rep growth	Bead autofluor	ugtP null kill	PrP 5UTR inh	Sa RN4220 lethal
O=c1[nH]c(=O)n(Cc2ccccc2)c2nc(-c3cccs3)n(CCO)c12	-4	7	9	nt	14	nt	3.4
Cc1c(NC(=O)c2cc(C3CC3)on2)c(=O)n(-c2ccccc2)n1C	2	-6	-2	6926	-14	-9	-2.7
CCOC(=O)C1CCN(C(=O)c2cc(C(C)(C)C)nn2Cc2ccccc2)CC1	-3	4	19	5190	-3	-24	4.4
CN1OC(CC(=O)O)N(c2ccc(Cl)cc2)C1=O (stereo unspecified)	2	nt	nt	3183	6	-16	3.5
O=C(c1ccc(Cl)cc1)N1CCN(CCc2ccccn2)CC1	3	-5	3	3628	2	2	-1.2
O=C(CSc1nnc(SCc2ccc(Cl)cc2)s1)NN=Cc1ccc(C(=O)O)cc1	nt	3	12	nt	14	nt	2.9
CSc1cccc(NC(=S)NCCCO)c1	-6	4	15	nt	1	-38	1.1
N=C1C(c2nc3ccccc3s2)=C(O)CN1C1CCCCC1	4	10	6	2628	-13	-15	6.2
COc1ccc(-n2nc3cc(N)c(Br)cc3n2)cc1	-7	3	12	7929	2	-83	1.2
COc1cc(C#CC#CCN2CCCCC2)ccc1O	-6	-10	-8	10067	-9	-34	0.6
CCOC(=O)C1CCCN(Cc2ccccc2OCC)C1 (stereo unspecified)	1	2	7	19086*	-4	-15	4.3
Cn1c(CC(=O)Nc2ccccc2)nnc1SCCOc1ccccc1	7	nt	nt	2972	-2	-34	-0.5
CCS(=O)(=O)N1CCC(C(=O)NCCCN2CCCCCC2)CC1	-3	4	-6	7442	7	-21	2.6
CSc1nnc(C)c(=O)n1COC(=O)COc1ccccc1F	1	-3	-3	5805	0	-7	1.1
COc1cc(OC)c2c(c1)OC(=O)CC2c1ccc(C)cc1 (stereo unspecified)	nt	-2	4	3694	-7	32	0.5
COc1ccc(CCNC(=O)C(C)SCc2ccccc2)cc1 (stereo unspecified)	-2	5	8	4625	-6	-10	5.5
NNc1nc2sc3c(c2c(=O)[nH]1)CCc1ccccc1-3	7	1	16	2007	-8	-23	6.6
CCC1CC=CC2C1C(=O)N(Cc1ccccc1)C2c1ccc(C(F)(F)F)cc1 (stereo unspecified)	nt	-1	2	nt	20	nt	-0.5
O=C(Cc1c(F)cccc1Cl)N(Cc1ccccc1)c1ccccn1	-2	7	0	4006	7	-7	5.1
CCc1noc(C)c1C(=O)OCC(=O)N(C)c1c(N)n(Cc2ccccc2)c(=O)[nH]c1=O	-1	2	0	5750	4	-2	3.3
COc1cccc(CNC(=O)c2ccc(Cl)c(S(=O)(=O)N3CCOCC3)c2)c1	nt	11	-1	nt	2	nt	6.5
Cc1ccc(NC(=O)c2nc[nH]c2C(=O)NC2CCN(C(=O)OC(C)(C)C)CC2)cc1	nt	13	6	4122	11	-8	7.5
Cc1ccc2c3c1C(=O)C(=O)N3C(C)(C)CC2C (stereo unspecified)	-2	7	5	5166	-5	-13	6.6
Cc1cccc(N(CC(=O)N/N=C/c2ccccc2C(=O)O)S(C)(=O)=O)c1C	1	nt	nt	4728	nt	-9	nt
Cc1cccc(C)c1OCC(=O)NCC1COc2ccccc2O1 (stereo unspecified)	nt	3	10	8805	4	-15	1.8

Just Mtb hypoxia rep and Mtb hypoxia rep growth, for 2 of the compounds above:
mol | Mtb hypoxia rep | Mtb hypoxia rep growth
Cc1cccc(C)c1OCC(=O)NCC1COc2ccccc2O1 (stereo unspecified) | 3 | 10
O=C(Cc1c(F)cccc1Cl)N(Cc1ccccc1)c1ccccn1 | 7 | 0

Twelve compounds from above, ordered by formula weight, lowest first:
SMILES	BJeLR viability	Mtb hypoxia rep	Mtb hypoxia rep growth	Bead autofluor	ugtP null kill	PrP 5UTR inh	Sa RN4220 lethal
CN1OC(CC(=O)O)N(c2ccc(Cl)cc2)C1=O (stereo unspecified)	2	nt	nt	3183	6	-16	3.5
CCOC(=O)C1CCCN(Cc2ccccc2OCC)C1 (stereo unspecified)	1	2	7	19086*	-4	-15	4.3
N=C1C(c2nc3ccccc3s2)=C(O)CN1C1CCCCC1	4	10	6	2628	-13	-15	6.2
COc1ccc(-n2nc3cc(N)c(Br)cc3n2)cc1	-7	3	12	7929	2	-83	1.2
COc1ccc(CCNC(=O)C(C)SCc2ccccc2)cc1 (stereo unspecified)	-2	5	8	4625	-6	-10	5.5
O=C(c1ccc(Cl)cc1)N1CCN(CCc2ccccn2)CC1	3	-5	3	3628	2	2	-1.2
CSc1nnc(C)c(=O)n1COC(=O)COc1ccccc1F	1	-3	-3	5805	0	-7	1.1
O=c1[nH]c(=O)n(Cc2ccccc2)c2nc(-c3cccs3)n(CCO)c12	-4	7	9	nt	14	nt	3.4
CCOC(=O)C1CCN(C(=O)c2cc(C(C)(C)C)nn2Cc2ccccc2)CC1	-3	4	19	5190	-3	-24	4.4
COc1cccc(CNC(=O)c2ccc(Cl)c(S(=O)(=O)N3CCOCC3)c2)c1	nt	11	-1	nt	2	nt	6.5
CCc1noc(C)c1C(=O)OCC(=O)N(C)c1c(N)n(Cc2ccccc2)c(=O)[nH]c1=O	-1	2	0	5750	4	-2	3.3
O=C(CSc1nnc(SCc2ccc(Cl)cc2)s1)NN=Cc1ccc(C(=O)O)cc1	nt	3	12	nt	14	nt	2.9

(more compounds)
SMILES	BJeLR viability	Mtb hypoxia rep	Mtb hypoxia rep growth	Bead autofluor	ugtP null kill	PrP 5UTR inh	Sa RN4220 lethal
Cc1cc(C(=O)OCC(=O)NCCC(C)C)c2ccccc2n1	-7	7	5	10179	7	nt	2.2
CCOc1ccc(C(=O)NCC(=O)OCC(=O)Nc2ccc(C)c(S(=O)(=O)N(C)C)c2)cc1	-13	8	-1	3580	2	-22	3.1
CC(=O)Nc1cccc(NS(=O)(=O)c2cccc3nsnc23)c1	6	nt	nt	4088	7	-26	-1.9
Cc1cc(=O)oc2cc(OC(=O)CCN3C(=O)c4ccccc4C3=O)ccc12	-9	0	3	22230*	4	-16	1.1
CCn1c(CCC(=O)O)nc2cc(S(=O)(=O)N(C)C)ccc21	-4	6	1	2583	9	-8	5.0
O=[N+]([O-])c1ccc(/C=N/N2CCCCC2)cc1	0	nt	nt	4090	nt	-82	nt
CCOC(=O)c1c(-c2ccc(C)cc2)csc1NC(=O)C1CCCO1 (stereo unspecified)	5	14	7	2524	63	0	-3.9
Cc1ccc(OCC(=O)NNC(=O)C2CCN(c3ncnc4sc(C)c(C)c34)CC2)cc1	-1	3	5	6551	9	-12	-2.5
COCCN(C(=O)COC(=O)c1ccc(C)o1)c1c(N)n(Cc2ccccc2)c(=O)[nH]c1=O	2	nt	nt	?	nt	-8	nt
CCC1=C2CC[C@H]3C(=O)N(C)C(=O)[C@H]3[C@H]2[C@@]2(Cc3ccccc3)C(=NCCOC)OC(=O)N2C1=O	-7	nt	nt	4118	nt	-23	nt
COc1ccccc1C(=O)C1CCCN(C(=O)c2ccccn2)C1 (stereo unspecified)	-4	7	4	1927	-1	-18	-0.2
O=C(OCCN1CCN(C2=NS(=O)(=O)c3ccccc32)CC1)c1cccc(Br)c1	0	-7	-4	5668	-3	-26	3.0
CC(CN1CCOCC1)OC(=O)c1ccc(Br)cc1 (stereo unspecified)	-3	nt	nt	2775	nt	-1	nt
CNC(=S)N1CCN(C(=O)C2CCCO2)CC1 (stereo unspecified)	-9	1	6	2023	1	-15	1.2
N#Cc1nc(N)nc(N(c2ccccc2)c2ccccc2)n1	1	nt	nt	4528	12	-20	1.4
Cc1cccc(NC(=O)C2C(c3ccccc3)C2(Cl)Cl)c1C (stereo unspecified)	-3	-4	3	9319	3	-12	2.7
O=C1c2ccccc2-c2c1cccc2C(=O)N(CCO)CCO	6	9	4	9891	12	-19	4.3
Cc1cccc(C(=O)NNC(=O)c2ccco2)c1O	-3	8	-6	5687	4	-23	-3.8
N#Cc1c(N=Cc2cc3ccccc3s2)sc2c1CCC2	nt	4	0	nt	11	nt	6.9
CC(C)Oc1ccc(C(=O)/C(=C\c2cccs2)c2nc3ccccc3o2)cc1	-4	nt	nt	2229	nt	1	nt
CCOC(=O)c1ccc(N(CC(=O)NC2CCCCC2)C(=O)CNC(=O)c2ccco2)cc1	4	-10	-3	4974	4	-13	4.6
Cn1nc(-c2ccccc2)cc1NS(=O)(=O)c1ccc(C#N)cc1	-1	-1	-3	nt	5	2	0.7
Nc1nc(N)nc(-c2ccc([N+](=O)[O-])o2)n1	nt	11	9	3947	36	-24	9.6
COc1cccc(CN(C)C(=O)C23CC4CC(CC(NC(C)=O)(C4)C2)C3)c1OC	-5	-7	13	4164	-1	-11	1.9
CCOc1ccc(Nc2nc(N)c([N+](=O)[O-])c(NCc3ccccc3)n2)cc1	-15	-2	-1	nt	-4	-4	0.9

(more compounds)
SMILES	BJeLR viability	Mtb hypoxia rep	Mtb hypoxia rep growth	Bead autofluor	ugtP null kill	PrP 5UTR inh	Sa RN4220 lethal
CN(C)CCNC(=O)c1nn(C)c2c1CCc1ccccc1-2	-5	12	3	3612	-2	-4	1.4
Cc1[nH]c2ccccc2c1SCC(=O)Nc1nccs1	7	0	-10	4254	-4	-24	2.5
COc1cc(C=NNC(=O)Nc2ccccc2)ccc1OCCOc1ccccc1C	nt	2	-6	nt	-7	nt	3.6
COc1ccc(N(CC2CO2)S(=O)(=O)c2ccccc2)cc1 (stereo unspecified)	6	17	0	3312	6	-20	7.9
O=C(Nc1ncccc1O)c1ccc2ccccc2c1	6	-5	4	5737	-7	-66	1.4
Cc1cc(C)c(NC(=O)CCCC(=O)O)c(Cl)c1	-7	17	7	8044	4	-14	1.0
COc1cc(/C=N/Nc2ccccn2)ccc1O	7	nt	nt	4705	nt	-67	nt
COc1ncnc(OC)c1S(=O)(=O)Nc1ccc(C(F)(F)F)cc1	-8	12	-1	4045	8	-22	6.4
CCC(C)n1c(S(=O)(=O)O)nc2ccccc21 (stereo unspecified)	1	0	7	22449*	-3	-21	0.6
c1ccc(Cn2c(-c3ccco3)nc3nc4ccccc4nc32)cc1	7	nt	nt	3322	-10	-139	-1.7
COc1ccc(CNC(=O)C2(CC3CC(c4ccccc4)=NO3)CCN(C(=O)c3cccc(O)c3)CC2)cc1 (stereo unspecified)	-1	14	8	2747	5	-9	7.6
NC1=NC(=O)C(Cc2cccc(Cl)c2)S1 (stereo unspecified)	-2	5	-1	2173	1	-12	5.4
CC(C)(C)c1ccc(C(=O)NCCC(=O)NCc2ccco2)cc1	-11	3	10	8348	-7	4	4.5
Cc1ccc(C(=O)OCC(=O)NCCC2=CCCCC2)s1	-4	7	0	2167	2	-23	2.7
CCCCC(=O)NCc1ccccc1Cl	7	nt	nt	4227	3	-10	-1.7
CCCCn1c(=O)c(C=Nc2cc([N+](=O)[O-])ccc2OC)c(O)n(CCCCl)c1=O	-2	3	6	2531	-6	-20	8.5
CC(=O)Nc1ccc(N/C(C)=C/C(=O)c2cccnc2)cc1	-2	5	5	2464	3	-3	2.3
O=C(NCc1ccc(F)cc1)c1c2c(nc3ccccc13)CCC2	-8	-4	4	3887	3	-27	21
COc1ccc(C(=O)N/C(=C\c2cn(S(=O)(=O)N(C)C)c3ccccc23)C(=O)NCCCn2ccnc2)cc1	4	2	7	5104	6	-28	-1.2
Cc1ccc(S(=O)(=O)N2CCN(c3nc(C(C)C)c4c(c3C#N)CC(C)(C)OC4)CC2)cc1	-16	7	-2	22172*	2	-10	5.6
CSCC[C@H](NC(=O)NCc1ccc(F)cc1)C(=O)O	-7	nt	nt	3288	nt	-2	nt
CCOC(=O)c1c(NC(=O)COC(=O)c2ccccn2)sc(C)c1C	nt	12	1	3501	1	-21	2.8
Cc1ccc(C(=O)c2ccc(O)cc2)cc1C	nt	10	14	10253	-11	-47	11
O=Nc1c(O)[nH]c2ccc(Cl)c(Cl)c12	nt	1	13	3688	-21	24	3.5
COC(=O)CSc1nnc(CNC(=O)c2ccccc2F)n1-c1ccc(F)cc1	4	-8	-5	3317	-4	5	0.9
C=CCN(c1ccccc1)S(=O)(=O)c1ccc(Cl)c(C(=O)OCC(=O)c2[nH]c(C)c(C(C)=O)c2C)c1	5	7	-1	9172	55	-23	7.5
COc1cccc(-c2ccc(C#N)c(=O)[nH]2)c1	-3	5	6	2605	2	-52	3.1

Source: PubChem BioAssay
